Cruzain noTriton: blocks cruzain activity in detergent-free assay. P25779. purified cruzain, Z-FR-AMC fluorescence, no detergent. Potency, µM, inactives show max response, negative = inhibition, usual class: inhibitors. hit rate 2.3% among 200,000. AID 1476;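 also: plate controls were enzyme without inhibitor for no effect and buffer without enzyme for full effect; nearly all actives have a fitted effect of over 40% in size; top concentration of the series not given in the record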
Target sequence (P25779 123-467 limits assumed): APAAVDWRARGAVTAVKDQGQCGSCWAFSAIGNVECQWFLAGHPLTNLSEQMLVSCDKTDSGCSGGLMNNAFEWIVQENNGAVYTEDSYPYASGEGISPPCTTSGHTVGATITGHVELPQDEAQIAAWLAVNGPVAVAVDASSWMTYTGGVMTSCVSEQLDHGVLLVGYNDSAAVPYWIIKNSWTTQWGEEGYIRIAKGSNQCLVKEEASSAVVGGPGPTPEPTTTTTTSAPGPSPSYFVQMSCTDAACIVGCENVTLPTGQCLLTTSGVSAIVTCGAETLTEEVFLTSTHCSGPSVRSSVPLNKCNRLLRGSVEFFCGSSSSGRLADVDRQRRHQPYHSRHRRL
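Detergent-free condition (0.00005% Triton X-100) in acetate buffer pH 5.5 with DTT. 1.5 nM enzyme and compound were pre-mixed 15 min, then 2 uM Z-FR-AMC substrate added; reaction progress from fluorescence change between first and third reads (60 s).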
Cruzain inh Det: blocks cruzain activity in presence of Triton detergent; hit rate 0.43% among 200,000; AID 1478; purified cruzain, Z-FR-AMC fluorescence, 0.01% Triton; Potency, µM, without a hit: max response, negative = inhibition, usual class: inhibitors;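 also: plate controls were neutral wells for no effect and buffer without enzyme for full effect; nearly all actives have a fitted effect of over 40% in size; top concentration of the series not given in the record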
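Detergent-containing arm of a paired screen for aggregation-based inhibition: 0.01% Triton X-100 present. Cruzain at 1.5 nM cleaved 2 uM Z-FR-AMC at pH 5.5 with 5 mM DTT; AMC fluorescence gain over 60 s measured activity.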
MARV entry inh: blocks Marburg virus binding to or entry into cells. Marburg virus pseudotyped entry inhibition, cell reporter; control for the full effect not named in the record; about a third of the inactives were read at about 46 µM. Potency, µM (doses to about 37.8 µM), for the others: at the top dose activity change, negative = inhibition, most hits filed as inhibitors. hit rate 1.8% among 300,000. AID 540276; active = well fitted inhibition curve with a large enough effect; inconclusive = small, poorly fitted or top-dose-only effect, or effect the other way; inactive = flat fitted curve, though single readings scatter; tested in HEK293 cells; about a fifth of its hits are not listed in these tables; also: % is scaled to controls: 0 for no effect and ±100 for the full control effect; luciferase read-out
StopGo reporter: FMDV 2A StopGo reporter, luciferase signal | hit rate 1.2% among 410,000 | Potency, µM (series often up to 57.9 µM), without a hit: at the top dose signal change, negative = less light | human cells with a luciferase reporter of 2A StopGo recoding; control for the full effect not named in the record; active = well fitted falling curve with a large enough effect; inconclusive = small, poorly fitted or top-dose-only effect; inactive = no such curve, though single readings can be large or run the other way; tested in HEK293T cells; also: % is scaled to controls: 0 for no effect and ±100 for the full control effect; nearly all actives have a fitted effect of over 45% in size; luciferase light after 4 h
Lassa entry inh: blocks Lassa virus binding to or entry into cells; Lassa virus pseudotype entry inhibition, cell reporter; control for the full effect not named in the record; Potency, µM (doses to about 37.9 µM), for inactives: at the highest dose activity change, negative = inhibition, actives largely listed as inhibitors; hit rate 1.2% among 300,000; AID 540256; active means well fitted inhibition curve with a large enough effect; inconclusive means small, poorly fitted or top-dose-only effect, or effect the other way; inactive means flat fitted curve, though single readings scatter; tested in HEK293 cells; also: % is scaled to controls: 0 for no effect and ±100 for the full control effect; nearly all actives have a fitted effect of over 50% in size; luciferase read-out
NS1 inh: blocks influenza NS1 protein function | S. cerevisiae slowed by influenza A NS1, growth recovery by OD600 | Potency, µM (doses to about 46.1 µM), inactives show at the highest dose activity, positive = more growth | hit rate 0.4% among 270,000 | AID 2326; active means well fitted rising curve with a large enough effect; inconclusive means small, poorly fitted or top-dose-only effect; inactive means no such curve, though single readings can be large or run the other way; also: nearly all actives have a fitted effect of over 50% in size
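Recovery from NS1-induced slow growth read by OD600 in budding yeast switched to galactose assay medium (pH 6.0, -URA) at 1:100 dilution. Compound 23 nl per well; the matching strain lacking NS1 serves as control.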
RE007 growth inh: less growth of the S. pombe RE007 Vpr strain; Potency, µM (titrated, usually from 92.2 µM), inactives show top-dose activity change, negative = less growth; AID 651644; S. pombe RE007 Vpr strain, BacTiter-Glo ATP luminescence, 24 h; control for the full effect not named in the record; hit rate 0.21% among 360,000; active = well fitted falling curve with a large enough effect; inconclusive = small, poorly fitted or top-dose-only effect; inactive = no such curve, though single readings can be large or run the other way;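 also: % is scaled to controls: 0 for no effect and ±100 for the full control effect; nearly all actives have a fitted effect of over 50% in size; the assay follows cell death caused by Vpr and the record does not say whether a fall means rescue or toxicity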
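Fission yeast strain RE007, carrying one chromosomally integrated HIV-1 vpr copy, was seeded at OD 0.01 in PMG+AL medium with 23 nL pinned compound. After 24 h at 30 °C and 99% humidity, viability was read by BacTiter-Glo luminescence.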
SARS PLpro yeast: blocks SARS-CoV papain-like protease in a yeast assay; S. cerevisiae expressing SARS-CoV PLpro, growth rescue; control for the full effect not named in the record; Potency, µM (doses to about 32.9 µM), without a hit: at the top dose activity, positive = growth rescue; hit rate 0.19% among 330,000; active means well fitted rising curve with a large enough effect; inconclusive means small, poorly fitted or top-dose-only effect; inactive means no such curve, though single readings can be large or run the other way; also: 0% is about no effect; nearly all actives have a fitted effect of over 55% in size; growth read by luminescence after 48 h
An asterisk follows results filed as active; & = joins results of further samples; [ ] = another dose, or the depositor's remark. Unless noted, calls follow the shape of the dose curve; as a rule, active = well fitted curve in the direction sought with a large enough effect; inconclusive = small, poorly fitted or top-dose-only effect, or another doubt; inactive = no such curve, though single readings can be large; an effect the other way counts as inactive or inconclusive. Potency is read from the fitted curve at half-maximal effect.

For O=C1CN(c2ccc(Cl)cc2)C(=O)CN1NC(=S)Nc1ccc(Cl)cc1 the results were Cruzain noTriton 6%, Cruzain inh Det -2.1%, MARV entry inh 5%, StopGo reporter 1%, Lassa entry inh -11%, NS1 inh -19%, RE007 growth inh 12% and SARS PLpro yeast 1%.
CC(C)(C)OC1NS(=O)(=O)OCC1NCOC(Cl)(Cl)Cl (stereo not given) was read as StopGo reporter -9%, NS1 inh 8%, RE007 growth inh 2% and SARS PLpro yeast -10%.
`COc1cc(CN2CCN(C(=O)c3ccccc3F)CC2)cc(OC)c1OC` gave StopGo reporter -6%, NS1 inh -10%, RE007 growth inh 1% and SARS PLpro yeast 0%.
CC(=O)c1nc2ccccc2n1S(=O)(=O)c1ccc(C)cc1 was read as Cruzain noTriton 0%, Cruzain inh Det -1.7%, MARV entry inh -3%, StopGo reporter 25%, Lassa entry inh -2%, NS1 inh 4%, RE007 growth inh 4% and SARS PLpro yeast 26%.
`CCOc1cc(C(=O)NCc2ccc(C)cc2)ccc1OCC(=O)N1CCOCC1` gave MARV entry inh -27%[46.1 µM], StopGo reporter 5%, Lassa entry inh 15%[46.1 µM], RE007 growth inh -25% and SARS PLpro yeast 0%.
For COc1ccc(C)cc1C(=O)CCC(=O)Nc1ccccc1N1CCOCC1 the results were Cruzain noTriton inconclusive, Cruzain inh Det -22%, MARV entry inh -12%&-12%, StopGo reporter 0%, Lassa entry inh inconclusive, NS1 inh -24%, RE007 growth inh -1% and SARS PLpro yeast -18%.
`O=C(CN1CCN(CC(=O)Nc2ccccc2F)CC1)Nc1ccc(Cl)c(C(F)(F)F)c1` gave Cruzain noTriton 15%, Cruzain inh Det -12%, StopGo reporter 0% and Lassa entry inh -29%[46.1 µM].
Screening COc1cccc(OC)c1C(=O)Nc1sc2c(c1C(N)=O)CCCC2 returned MARV entry inh -4%[14.2 µM], StopGo reporter -10%, Lassa entry inh -18% and RE007 growth inh -5%.
For CCOC(=O)C1CCN(C(=O)c2cc3cc(Br)ccc3oc2=O)CC1 the results were StopGo reporter 6%, NS1 inh -3%, RE007 growth inh 5% and SARS PLpro yeast 0%.
Screening O=C(c1ccc(Cl)cc1)c1cccc(O)c1 returned MARV entry inh -8%, StopGo reporter -7%, Lassa entry inh 3% and RE007 growth inh 5%.
For CC1=C(C(=O)OCc2ccccc2)C(/C=C/c2ccccc2)NC(=S)N1 (stereo not given) the results were Cruzain noTriton inconclusive, Cruzain inh Det -3.2%, MARV entry inh inconclusive, StopGo reporter inconclusive, Lassa entry inh 13µM*, NS1 inh -10% and RE007 growth inh 0%.
COc1ccc(N(CC(=O)Nc2ccccc2C(=O)N2CCCC2)S(=O)(=O)c2ccccc2)cc1 was read as MARV entry inh -7%, StopGo reporter -16%, Lassa entry inh -29%, NS1 inh 11%, RE007 growth inh -10% and SARS PLpro yeast -5%.
Screening CN(C(=O)COC(=O)c1cc(=O)[nH]c2ccccc12)c1c(N)n(Cc2ccccc2)c(=O)[nH]c1=O returned MARV entry inh -9%[46.1 µM], StopGo reporter -25%, Lassa entry inh 9%, RE007 growth inh -5% and SARS PLpro yeast -3%.
Screening COc1ccc(C)cc1Nc1cc(C)nc2nc(C)nn12 returned Cruzain noTriton -3%, Cruzain inh Det 2.3%, StopGo reporter -14%, NS1 inh inconclusive, RE007 growth inh 16% and SARS PLpro yeast -3%.
N#Cc1cc2c(nc1SCC1COc3ccccc3O1)CCC2 (stereo not given) was read as Cruzain noTriton -10%, Cruzain inh Det -5.1%, MARV entry inh inconclusive, StopGo reporter 0%, Lassa entry inh 26%, NS1 inh 0%, RE007 growth inh 3% and SARS PLpro yeast 2%.
Screening COc1ccc(CN(C(=S)Nc2ccccc2)C2CC(=O)N(c3ccc(Cl)cc3)C2=O)cc1 (stereo not given) returned Cruzain noTriton -2%, Cruzain inh Det -3.3%, MARV entry inh -14%, StopGo reporter 0%, Lassa entry inh inconclusive, NS1 inh 13%, RE007 growth inh 12% and SARS PLpro yeast 1%.
For COc1ccc(NC(=O)NC(C)c2ccc3c(c2)OCO3)c(OC)c1 (stereo not given) the results were MARV entry inh 2%, StopGo reporter 8%, Lassa entry inh -1%, NS1 inh 0%, RE007 growth inh -1% and SARS PLpro yeast 3%.
COc1ccccc1OCC(=O)NNC(=O)Nc1ccccc1 was read as MARV entry inh 4%[46.1 µM], StopGo reporter 2%, Lassa entry inh 1% and RE007 growth inh -13%.
CCCCOC(=O)c1ccc(NC(=S)NC(=O)c2ccco2)cc1 was read as MARV entry inh inconclusive, StopGo reporter -9%, Lassa entry inh 16µM*, NS1 inh 10%, RE007 growth inh 11% and SARS PLpro yeast 1%.
For CC(=O)N1CC(C)Sc2ccc(S(=O)(=O)NC(C)c3ccccc3)cc21 (stereo not given) the results were StopGo reporter -10%, NS1 inh 2%, RE007 growth inh 5% and SARS PLpro yeast -1%.
`CC(=O)N1CCc2cc(Br)cc(S(=O)(=O)N3CCN(c4ccccn4)CC3)c21` gave Cruzain noTriton inconclusive, Cruzain inh Det 0.9%, MARV entry inh 2%[46.1 µM], StopGo reporter -8%, Lassa entry inh 4%, NS1 inh -12%, RE007 growth inh 13% and SARS PLpro yeast 2%.
CC(=O)Nc1ccc(NC(=O)CSc2ccc([N+](=O)[O-])cn2)cc1 was read as MARV entry inh -23%[46.1 µM], StopGo reporter -10%, Lassa entry inh -19%[46.1 µM], NS1 inh 11%, RE007 growth inh 8% and SARS PLpro yeast -1%.
Screening Cc1cc(OC(C)C(=O)NCCCn2ccnc2)c2c(C)cc(=O)oc2c1 (stereo not given) returned StopGo reporter -10%, NS1 inh -2%, RE007 growth inh -3% and SARS PLpro yeast 11%.
O=C(CN1CCN(C(=O)c2cccc(S(=O)(=O)N3CCCC3)c2)CC1)Nc1ccc(F)cc1 was read as MARV entry inh 0%, StopGo reporter inconclusive, Lassa entry inh -2%, RE007 growth inh -10% and SARS PLpro yeast -9%.
`N#CC(C#N)=C1NC2(CCCCC2)Cc2ccccc21` gave StopGo reporter -21%, NS1 inh -1%, RE007 growth inh 30% and SARS PLpro yeast -2%.
For C/C(CC(=O)Nc1c(C)cc(C)cc1C)=N\NC(=O)Cc1ccccc1 the results were MARV entry inh -16%[46.1 µM], StopGo reporter 29%, NS1 inh 2%, RE007 growth inh 4% and SARS PLpro yeast 0%.
Screening O=C(COc1ccccc1)Nc1cccc2c1CCCC2 returned Cruzain noTriton -1%, Cruzain inh Det -3.6%, MARV entry inh -6%, StopGo reporter -4%, Lassa entry inh -10%, NS1 inh -22%, RE007 growth inh -2% and SARS PLpro yeast -6%.
`O=C(O)CSCNC(=O)C12CC3CC(CC(C3)C1)C2` gave Cruzain noTriton -5%, Cruzain inh Det 3.6%, MARV entry inh 10%, StopGo reporter 24%, Lassa entry inh 10%, NS1 inh 3%, RE007 growth inh 25% and SARS PLpro yeast -12%.
`CC(C)NC(=S)N/N=C/c1ccc(C(C)(C)C)cc1` gave MARV entry inh inconclusive, StopGo reporter inconclusive, Lassa entry inh inconclusive, NS1 inh -4%, RE007 growth inh inconclusive and SARS PLpro yeast 15%.
`N/C(=N\OC(=O)COc1cc(Cl)c(Cl)cc1Cl)c1ccccn1` gave MARV entry inh inconclusive, StopGo reporter 25%, Lassa entry inh inconclusive, RE007 growth inh 5% and SARS PLpro yeast 3%.
Screening O=C1CC(c2ccsc2)Sc2ccccc2N1 (stereo not given) returned MARV entry inh inconclusive, StopGo reporter 6%, Lassa entry inh -21%, NS1 inh 0%, RE007 growth inh 2% and SARS PLpro yeast 2%.
COc1ccc2nc(NC(=O)c3cc(=O)c4ccccc4o3)sc2c1 was read as Cruzain noTriton 10%, Cruzain inh Det -6.0%, MARV entry inh inconclusive, StopGo reporter 30%[activator] and Lassa entry inh 11%[46.1 µM].
Brc1ccccc1-c1nnc2sc(Cc3ccccc3)nn12 was read as Cruzain noTriton -11%, Cruzain inh Det -1.9%, MARV entry inh 1%, StopGo reporter -9%, Lassa entry inh 3%, NS1 inh -54%, RE007 growth inh -4% and SARS PLpro yeast -23%.
Screening COc1ccc(NC(=O)c2c(-c3c(Cl)cccc3Cl)noc2C)c(OC)c1 returned MARV entry inh -16%[46.1 µM], StopGo reporter -5%, NS1 inh -4%, RE007 growth inh 9% and SARS PLpro yeast -7%.
Screening CC(NC(=O)OCc1ccccc1)C(=O)NCC1CCCO1 (stereo not given) returned Cruzain noTriton 4%, Cruzain inh Det 6.7%, MARV entry inh 3%, StopGo reporter 0%, Lassa entry inh 0%, NS1 inh 0%, RE007 growth inh 17% and SARS PLpro yeast -4%.
For CCOc1ccc(-c2noc(=O)[nH]2)cc1 the results were Cruzain noTriton -1%, Cruzain inh Det -0.4%, MARV entry inh 3%, StopGo reporter 33%[activator], Lassa entry inh -1%, NS1 inh -48%, RE007 growth inh 12% and SARS PLpro yeast 1%.
Screening COc1cc(/C=C2/C(=O)N(c3ccc([N+](=O)[O-])cc3)N=C2N2CCOCC2)ccc1O returned StopGo reporter -17%, NS1 inh -3%, RE007 growth inh -11% and SARS PLpro yeast -1%.
O=S(=O)(NNC(=S)Nc1ccc(S(=O)(=O)Nc2ncccn2)cc1)c1ccc(Br)cc1 was read as StopGo reporter 10%, NS1 inh 5%, RE007 growth inh -1% and SARS PLpro yeast -1%.
Screening C/C(=N\NC(=O)c1ccc(NS(=O)(=O)c2cccs2)cc1)c1ccc2c(c1)OCO2 returned MARV entry inh 2%[46.1 µM], StopGo reporter 26%, Lassa entry inh 3%, RE007 growth inh -4% and SARS PLpro yeast 2%.
N#CSCC(=O)N1c2ccccc2CCc2ccccc21 was read as Cruzain noTriton 9%, Cruzain inh Det -12%, MARV entry inh inconclusive, StopGo reporter inconclusive, Lassa entry inh inconclusive, NS1 inh -14% and SARS PLpro yeast -30%.
Screening CC(=O)c1ccc(C(=O)Nc2nnc(-c3ccc(Cl)cc3)o2)cc1 returned StopGo reporter -9%, NS1 inh -63%, RE007 growth inh -7% and SARS PLpro yeast -4%.
`COC(=O)C(C(=O)OC)C(CC(=O)c1ccc(C)cc1)c1cc(OC)c(OC)c(OC)c1` (stereo not given) gave StopGo reporter 0%, NS1 inh -14%, RE007 growth inh -10% and SARS PLpro yeast 3%.

High-throughput results from PubChem BioAssay.
